Compound activity (PubChem)
TRPML1 inh – inhibitors of human TRPML1 channel. Q9GZU1. TRPML1-inducible cells, Ca2+ dye fluorescence, FDSS; active compounds read low; inhibition of EC80 agonist-evoked calcium signal. activity change, negative = inhibition, % (no concentration beside the values). 390,000 tested, 0.02% active. AID 624415; in the data active means activity change below about -50%; inconclusive means about -30% to -50%; inactive means above about -30%;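 note: stimulus is agonist 54-4 at its EC80 concentration; % is set by controls: 0 for no effect and ±100 for the full control effect; compound concentration not given in the record; the text of the record puts the active cut at -80%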
Target sequence (Q9GZU1 whole entry, looked up): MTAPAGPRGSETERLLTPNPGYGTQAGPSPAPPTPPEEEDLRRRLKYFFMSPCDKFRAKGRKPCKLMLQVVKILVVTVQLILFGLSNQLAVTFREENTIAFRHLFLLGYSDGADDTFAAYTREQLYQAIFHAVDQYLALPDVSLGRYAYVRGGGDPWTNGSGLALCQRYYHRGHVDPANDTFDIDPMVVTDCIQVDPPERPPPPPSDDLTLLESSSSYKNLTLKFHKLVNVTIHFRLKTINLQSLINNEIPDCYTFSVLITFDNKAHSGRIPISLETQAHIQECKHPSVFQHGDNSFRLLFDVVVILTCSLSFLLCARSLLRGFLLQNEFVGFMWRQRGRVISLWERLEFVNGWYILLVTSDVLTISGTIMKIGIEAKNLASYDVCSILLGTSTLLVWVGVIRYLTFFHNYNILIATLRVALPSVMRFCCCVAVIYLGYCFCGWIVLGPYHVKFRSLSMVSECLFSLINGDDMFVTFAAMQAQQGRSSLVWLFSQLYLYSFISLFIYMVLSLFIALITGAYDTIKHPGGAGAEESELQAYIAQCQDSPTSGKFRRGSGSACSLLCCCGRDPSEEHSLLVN
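Calcium fluorescence in TRPML1-DL cells induced overnight with Tet: a 110 s read after compound pin addition, then a 110 s antagonist read after challenge with 54-4 at 4 uM final (EC80).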
ClpP mod – qHTS Assay for Activators of ClpP | ATP-dependent Clp protease proteolytic subunit (Bacillus subtilis (strain 168)), P80244 | purified B. subtilis ClpP, FRET peptide cleavage, 20 min | Potency, µM (highest dose often 57.5 µM), for inactives: top-dose activity change, negative = active | 340,000 tested, 1.9% active; active = well fitted falling curve with a large enough effect; inconclusive = small, poorly fitted or top-dose-only effect; inactive = no such curve, though single readings can be large or run the other way; note: potency is the fitted concentration of half-maximal effect; the source files actives as falling curves though it sought activators and does not explain the sign; nearly all actives have a fitted effect of over 65% in size; many hits overshoot -100%
Target sequence (P80244 whole entry, looked up): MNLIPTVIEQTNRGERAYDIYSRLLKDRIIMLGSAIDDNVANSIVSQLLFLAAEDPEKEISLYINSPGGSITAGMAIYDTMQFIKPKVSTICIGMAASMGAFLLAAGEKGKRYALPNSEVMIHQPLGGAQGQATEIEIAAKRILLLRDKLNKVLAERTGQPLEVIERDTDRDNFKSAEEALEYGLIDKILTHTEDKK
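FRET quenching reversal measured ClpP activation: 10 microg/mL B. subtilis ClpP at pH 8 with the FRET-FV decapeptide, read at 430 nm after 320 nm excitation. The 20-min minus 0-min signal was scaled between DMSO/no-enzyme wells and ADEP (5.8 microM final).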
gsp antagonist – antagonists of gsp mutant (McCune-Albright syndrome). AID 624288. Potency, µM (titrated, usually from 76.9 µM), for the others: top-dose activity change, negative = inhibition, actives largely listed as inhibitors. gsp-mutant cells, cAMP HTRF, 30 min; control for the full effect not named in the record. 340,000 tested, 0.4% active; active = falling curve of any shape with a large fitted effect; inconclusive = falling curve, mostly with a smaller effect; inactive = flat or rising curve; cell line not stated here;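 note: intracellular cAMP measured with PDE inhibitor Ro 20-1724 present during compound exposure; potency is the fitted concentration of half-maximal effect; % is set by controls: 0 for no effect and ±100 for the full control effect; nearly all actives have a fitted effect of over 65% in size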
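Cells, 2000/well, grown 16–24 h in DMEM 10% FBS with 0.5 mg/ml G418, then compounds plus […] (300 uM addition stock), 30 min at 37C. cAMP read by HTRF (cAMP-d2 and anti-cAMP antibody-K in lysis buffer) after 30 min RT.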
TRPML1 agonist – agonists of human TRPML1 channel; Q9GZU1; TRPML1-expressing cells, Ca2+ dye fluorescence, FDSS; host cell line not named in the record; reference of the full effect not given here; activation, % (no concentration beside the values); 410,000 tested, 0.12% active; AID 624414; in the data active = activation above about 50%; inconclusive = about 30% to 50%; inactive = below about 30%; note: 0% is about no effect; the text of the record puts the active cut at 80%
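Agonist activity was taken from a 110 s kinetic Ca2+ dye read on the FDSS after pinning compounds onto TRPML1-DL cells. The cells were seeded at 1,500/well with Tet inducer, incubated about 16 h, then dye-loaded at room temperature.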
gsp ag – agonists of gsp mutant (McCune-Albright syndrome). Potency, µM (highest dose often 76.9 µM), inactives show top-dose activation (cAMP increase), usual class: activators. AID 624287. 340,000 tested, 0.13% active. gsp mutant cells, cAMP HTRF, 30 min; control for the full effect not named in the record; active = well fitted activation curve with a large enough effect; inconclusive = small, poorly fitted or top-dose-only effect, or another doubt; inactive = no such curve, though single readings can be large or run the other way; cell line not stated here;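 note: phosphodiesterase inhibitor Ro 20-1724 added with compounds to block cAMP breakdown; potency is the fitted concentration of half-maximal effect; nearly all actives have a fitted effect of over 60% in size; about a fifth of the inactives were tested at one dose only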
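Cells in DMEM/10% FBS with G418 were pretreated with compounds in DMSO plus […] (300 uM stock) for 30 min at 37C. cAMP was measured by HTRF (cAMP-d2 plus anti-cAMP antibody-K) after 30 min at room temperature.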
Menin MLL FP FL – inhibitors of human menin-MLL interaction, wild-type MLL peptide | 290,000 tested, under 10 active | FP activity change, % at 61.4 µM | Fluorescence polarization, fluorescein-MLL peptide displacement from menin; inconclusive = falling polarisation curve, or a change in total fluorescence; inactive = total fluorescence flat and polarisation flat or rising; no compound was filed as active; the % refers to the polarisation; negative = inhibition;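 note: % of control where 0% means no effect; inhibitors lower the polarisation; unlabelled MLL peptide was the positive control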
The depositor's hits bear a star; & = joins results of further samples; [ ] = dose if it differs, or a comment.

`Cc1ccccc1-n1c(=O)cc(N2CCN(C(=O)c3ccco3)CC2)[nH]c1=O` gave TRPML1 inh -14, ClpP mod 1.9%, gsp antagonist 8%, TRPML1 agonist -0.4, gsp ag 15% and Menin MLL FP FL -3.3.
COCCn1c(SCC(=O)Nc2ccc(F)cc2)nc2c(oc3ccccc32)c1=O was read as TRPML1 inh -13, gsp antagonist -1%, TRPML1 agonist -0.5, gsp ag 16% and Menin MLL FP FL 1.7.
O=C(CCCCn1c(=S)[nH]c2ccsc2c1=O)NCc1ccco1 was read as TRPML1 inh -12, ClpP mod -1.3%, gsp antagonist -2%, TRPML1 agonist 0.6, gsp ag 19% and Menin MLL FP FL -1.5.
For Cc1cccc(C2N(c3nccs3)C(=O)C3CCCN32)c1 (stereo not drawn) the results were TRPML1 inh 0, ClpP mod -8.9%, gsp antagonist -11%, TRPML1 agonist -0.3, gsp ag -25% and Menin MLL FP FL 2.8.
For CCN(C[C@H]1N[C@@](CC)(C(=O)OC)[C@H]2C(=O)N(Cc3ccccc3)C(=O)[C@@H]12)C(=O)Nc1ccc(C)cc1 the results were TRPML1 inh -5, ClpP mod -0.6%, gsp antagonist -4% and TRPML1 agonist 1.6.
For Cc1ccccc1NS(=O)(=O)c1nnc(NC(=O)c2ccc(Cl)cc2)s1 the results were TRPML1 inh 22&7, ClpP mod -1.1%&-3.4%, gsp antagonist inconclusive, TRPML1 agonist -0.7&-0.5, gsp ag inconclusive and Menin MLL FP FL -0.7.
For CCOc1c(CNCCNC(=O)c2nonc2N)cccc1OC the results were TRPML1 inh 8, ClpP mod 0.3%, gsp antagonist 4%, TRPML1 agonist 0.4, gsp ag inconclusive and Menin MLL FP FL 1.3.
For CNC(=O)CN1C(=O)NC(Cc2c[nH]c3ccccc23)C1=O (stereo not drawn) the results were TRPML1 inh 20, gsp antagonist 6%, TRPML1 agonist 0.0, gsp ag 3% and Menin MLL FP FL -1.5.
Nc1c(Br)cc(Br)c2c1C(=O)c1c(cccc1S(=O)(=O)O)C2=O was read as TRPML1 inh -1, gsp antagonist 5%, TRPML1 agonist -0.4 and gsp ag 21%.
For CCCCCC1(C)NC(=S)N(c2ccccc2)N1 (stereo not drawn) the results were TRPML1 inh 14, TRPML1 agonist -0.6, gsp ag -9%[15.4 µM] and Menin MLL FP FL -4.9.
Screening Cc1ccc(CNC(=O)CSc2c3c(nc4ccc(Cl)cc24)CCCC3)cc1 returned TRPML1 inh 0, ClpP mod -2.8% and TRPML1 agonist 1.3.
Screening Nc1ncc(S(=O)(=O)NCc2cccc(Cl)c2)cn1 returned TRPML1 inh 5, ClpP mod -1.9% and TRPML1 agonist -0.7.
For COc1ccc(Nc2ncc3c(n2)CCN(Cc2sccc2C)C3)c(OC)c1 the results were TRPML1 inh 9, ClpP mod inconclusive and TRPML1 agonist 1.2.
`Cc1ccc(NC(=O)CCn2c(=O)oc3ccccc32)c(C)c1` gave TRPML1 inh 16, ClpP mod -7.2%, gsp antagonist 8%, TRPML1 agonist -0.1, gsp ag -43%[inhibitor] and Menin MLL FP FL -0.4.
Screening COc1ccc(CNC(=O)c2c(O)c3cccc4c3n(c2=O)CCC4)cc1OC returned TRPML1 inh 6, ClpP mod 1.1%, gsp antagonist 4%, TRPML1 agonist -1.0, gsp ag 27% and Menin MLL FP FL 1.1.
`COc1ccc(-c2noc(CCC(=O)Nc3ccc(C(F)(F)F)cc3)n2)cc1` gave TRPML1 inh -11, ClpP mod -0.2% and TRPML1 agonist -1.0.
For O=C(O)Cn1c(SCc2ccccc2)nc2ccccc21 the results were TRPML1 inh 6, ClpP mod -1.2%, gsp antagonist -8%, TRPML1 agonist 0.3, gsp ag 14% and Menin MLL FP FL -1.4.
`CCNC(=O)CC1C(=O)N(c2ccc(C)cc2)C(=O)N1Cc1ccccn1` (stereo not drawn) gave TRPML1 inh 4, ClpP mod -17%, gsp antagonist 8%, TRPML1 agonist 0.6, gsp ag -18% and Menin MLL FP FL 2.5.
`COc1ccc(NC(=O)Nc2ccccc2C)c(OC)c1` gave TRPML1 inh 44, ClpP mod 0.1%, gsp antagonist 7%, TRPML1 agonist -0.4, gsp ag 5% and Menin MLL FP FL -0.5.
CC(C)C1Cc2ccccc2-c2[nH]c(=S)[nH]c(=O)c21 (stereo not drawn) was read as TRPML1 inh 18, gsp antagonist 6%, TRPML1 agonist 0.5 and gsp ag 84%[15.4 µM].
`CC1(C)Cc2ccccc2C(=NCC(=O)O)N1` gave TRPML1 inh 8, TRPML1 agonist 0.7, gsp ag -18%[15.4 µM] and Menin MLL FP FL -2.4.
COc1ccccc1N1CCN(CCC(=O)Nc2ccc3c(c2)OCO3)CC1 was read as TRPML1 inh -2, ClpP mod 0.4%, gsp antagonist -2%, TRPML1 agonist -0.9, gsp ag 16% and Menin MLL FP FL 4.0.
`COC(=O)c1c(NC(=O)C(C)Oc2ccc(Cl)cc2Cl)sc2c1CCCC2` (stereo not drawn) gave TRPML1 inh 9, ClpP mod -13% and TRPML1 agonist 0.8.
Screening Nc1nn(-c2cccc(F)n2)cc1-c1ccc(Cl)cc1 returned TRPML1 inh 18, gsp antagonist -12%, TRPML1 agonist -0.5, gsp ag -2%[15.4 µM] and Menin MLL FP FL -0.9.
`CC(C)c1ccccc1NC(=O)CNCCc1ccc(C(F)(F)F)cc1` gave TRPML1 inh 31, ClpP mod -1.6%, gsp antagonist 2%, TRPML1 agonist -0.1, gsp ag -14% and Menin MLL FP FL 6.2.
For COc1cc(CNc2ccc(CNc3ncn[nH]3)cc2)cc(Cl)c1OCc1ccccc1 the results were TRPML1 inh -15, ClpP mod -3.3%, gsp antagonist inconclusive, TRPML1 agonist 2.4, gsp ag -61%[inhibitor] and Menin MLL FP FL 3.8.
For Cc1cc(C)c(NC(=O)CNC(=O)CN(C)Cc2ccc(Br)s2)c(C)c1 the results were TRPML1 inh -1, ClpP mod -0.4%, gsp antagonist 4%, TRPML1 agonist -0.9 and gsp ag 1%.
FC(F)(F)C(Oc1nc(NC2CCCCC2)nc(N2CCOCC2)n1)C(F)(F)F was read as TRPML1 inh 21, ClpP mod -0.9%, gsp antagonist 1%, TRPML1 agonist 2.2, gsp ag -18% and Menin MLL FP FL -2.4.
Screening NC(=O)c1ncn([C@@H]2O[C@H](CNCc3cccc4c3sc3ccccc34)[C@@H](O)[C@H]2O)n1 returned TRPML1 inh -3, ClpP mod 0.0%, gsp antagonist 6% and TRPML1 agonist -1.0.
`CCOc1cc(N2CCOCC2)c(OCC)cc1NC(=O)CSc1nccc(C)n1` gave TRPML1 inh -11, gsp antagonist -15%, TRPML1 agonist -0.7, gsp ag -21% and Menin MLL FP FL -4.0.
`COc1ccc(CNC(=O)COC(=O)C2(C)CC2(Cl)Cl)cc1` (stereo not drawn) gave TRPML1 inh -13, ClpP mod -2.9%, gsp antagonist 6%, TRPML1 agonist 2.3 and gsp ag 5%.
Screening O=C(COC(=O)c1ccc(O)cc1)Nc1ccc(S(=O)(=O)N2CCOCC2)cc1 returned TRPML1 inh 23, ClpP mod 0.4%, gsp antagonist -6%, TRPML1 agonist -0.2 and gsp ag -34%[inhibitor].
CCc1ccc(S(=O)(=O)N/N=C\c2cn(CC(N)=O)c3ccccc23)cc1 was read as TRPML1 inh -8, ClpP mod 0.7%, gsp antagonist 3%, TRPML1 agonist -0.4, gsp ag -16%[15.4 µM] and Menin MLL FP FL 1.6.
For COc1cc(C(=O)N2CCN(S(=O)(=O)c3ccc(C(C)C)cc3)CC2)ccc1OCC(=O)N1CCOCC1 the results were TRPML1 inh 2, ClpP mod -0.7%, gsp antagonist -15%, TRPML1 agonist 1.0 and gsp ag inconclusive.
`COc1cccc2sc3ccc(C#Cc4ccc(N)cc4)cc3c(=O)c12` gave TRPML1 inh -15, ClpP mod 0.6%, gsp antagonist 9%, TRPML1 agonist 0.1, gsp ag 12% and Menin MLL FP FL 3.7.
For O=CN1CCCN(Cc2nc(Cc3ccccc3F)no2)CC1 the results were TRPML1 inh 14, ClpP mod 0.7%, gsp antagonist 5%, TRPML1 agonist 0.1, gsp ag -32%[inhibitor] and Menin MLL FP FL -0.8.
C/C(=N/NC(=O)CNC(=O)COc1cccc(C)c1)c1ccc(Cl)cc1 was read as TRPML1 inh 14, ClpP mod 0.9%, gsp antagonist 15%, TRPML1 agonist -0.4 and gsp ag -8%.
O=C(N/N=C\c1ccc(Br)cc1)c1ccc(Cn2cccn2)o1 was read as TRPML1 inh 6, ClpP mod 25µM*, gsp antagonist -10%, TRPML1 agonist 0.2, gsp ag -5% and Menin MLL FP FL 4.0.
`Cc1cc(C)c(C#N)c(SCC(=O)Nc2ccccc2C#N)n1` gave TRPML1 inh -20, ClpP mod -28% and TRPML1 agonist 0.9.
CCN(CC)S(=O)(=O)c1cc(NC(=O)C2Cc3ccccc3C(=O)O2)ccc1C (stereo not drawn) was read as TRPML1 inh 18, ClpP mod -3.3%, gsp antagonist -14%, TRPML1 agonist 3.1, gsp ag 7% and Menin MLL FP FL 1.6.
Screening CCO[C@@H]1OC(C(=O)O)=C[C@H](c2ccc(Br)cc2)[C@H]1CCCO returned TRPML1 inh -7, ClpP mod 1.8%, gsp antagonist 4%, TRPML1 agonist -0.9, gsp ag -45%[inhibitor] and Menin MLL FP FL 0.7.
Screening Cc1ccccc1Cn1cnc2ccccc2c1=O returned TRPML1 inh -5, ClpP mod -0.8%, gsp antagonist 10%, TRPML1 agonist -0.8, gsp ag 3%[15.4 µM] and Menin MLL FP FL 1.4.
O=C(Cn1ccc(C(F)(F)F)n1)N=Nc1c(O)[nH]c2ccc(Br)cc12 was read as TRPML1 inh inconclusive, ClpP mod 0.8%, gsp antagonist -14%, TRPML1 agonist 1.5, gsp ag inconclusive and Menin MLL FP FL 1.4.
COc1ccc(-c2[nH]ncc2CN(C)Cc2cccnc2)c(F)c1 was read as TRPML1 inh -14, ClpP mod -1.5%, gsp antagonist 12%, TRPML1 agonist -0.7, gsp ag 3% and Menin MLL FP FL -3.2.
Screening COc1ccc(C2C3=C(COC3=O)Oc3cc4c(cc32)OCO4)cc1OC (stereo not drawn) returned TRPML1 inh -3, ClpP mod -1.8%&-0.7%, gsp antagonist -1%, TRPML1 agonist 1.8&-0.6 and gsp ag -1%.
CC(C(=O)O)N1C(=O)c2ccccc2C1=O (stereo not drawn) was read as TRPML1 inh 21, ClpP mod 1.5%, gsp antagonist 5%, TRPML1 agonist 0.2, gsp ag -22% and Menin MLL FP FL -3.2.
